Source: PubChem
FGF22 binding: shifts melting point of recombinant human FGF22; AID 651658; calls only at 9.99 µM; recombinant FGF22 thermal shift, SYPRO orange fluorescence; percent of sucrose octasulfate shift, DMSO zero; Q9HCT0; 340,000 compounds, 1.5% hits;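 active = melting point raised past a set limit in the mean and every replicate; inconclusive = no clear call; three in four hits are not shown here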
Target sequence (Q9HCT0 whole entry, looked up): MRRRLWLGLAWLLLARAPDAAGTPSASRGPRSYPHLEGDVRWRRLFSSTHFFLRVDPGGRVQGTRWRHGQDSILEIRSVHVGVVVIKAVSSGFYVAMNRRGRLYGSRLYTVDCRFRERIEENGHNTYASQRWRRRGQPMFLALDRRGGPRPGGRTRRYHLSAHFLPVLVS
AF4-AF9 inh: inhibitors of human MLL-AF4/AF9 interaction. AlphaScreen, biotin-AF4 peptide binding to FLAG-AF9. inhibition, % at 10 µM. 350,000 compounds, 0.47% hits;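 active = every replicate reaching a set inhibition limit, whatever the replicate mean, cut at about 25% in these data; inconclusive = mean inhibition reaches that limit but some replicates miss it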;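 note: 0% = plate neutral control median and 100% = total signal loss; the record names both 10 and 1 µM as test concentration; the first replicate is given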
rRNA inh HTS: inhibits bacterial ribosomal RNA function over humanized ribosomes; GFP signal change (wild-type ribosome), % (no concentration beside the values); AID 720706; E. coli WT GFP vs humanized-ribosome RFP mutants, fluorescence, 24 h; hits give low values; DMSO median 0, no signal -100; 350,000 compounds, 1.6% hits;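 active = significant combined selectivity score with lowered wild-type GFP, culture density cut under 30%, mutant RFP and density less affected; inactive = any of these conditions unmet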; note: one replicate is shown; some compounds called inactive have numbers as strong as hits
Beta cell apopt: blocks beta cell apoptosis. protection from apoptosis, % (no concentration beside the values). INS-1E cytokine-induced death, ATP luminescence, 48 h; percent of positive-control rescue, neutral wells zero. 300,000 compounds, 0.8% hits;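 active = all replicates at 75% or more, or half of them and the mean; inconclusive = half reach 75% but not the mean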;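 note: 0% = cytokine-treated negative control wells and 100% = positive control rescue; higher means more ATP so stronger rescue from cytokine killing; wells of about 40 µL received 100 nL stock; the first replicate is given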
UCH37 inh: human UCH37 deubiquitinating enzyme inhibition. Q9Y5K5. purified proteasome/UCH37, Ub-AMC cleavage fluorescence. inhibition, % (no concentration beside the values). 330,000 compounds, 0.33% hits. AID 588478;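 active = mean of two replicates above 20%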;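 note: 0% = compound-free wells with enzyme and 100% = wells lacking proteasome; stock transfer was 100 nL into about 20 µL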
Target sequence (Q9Y5K5 whole entry, looked up): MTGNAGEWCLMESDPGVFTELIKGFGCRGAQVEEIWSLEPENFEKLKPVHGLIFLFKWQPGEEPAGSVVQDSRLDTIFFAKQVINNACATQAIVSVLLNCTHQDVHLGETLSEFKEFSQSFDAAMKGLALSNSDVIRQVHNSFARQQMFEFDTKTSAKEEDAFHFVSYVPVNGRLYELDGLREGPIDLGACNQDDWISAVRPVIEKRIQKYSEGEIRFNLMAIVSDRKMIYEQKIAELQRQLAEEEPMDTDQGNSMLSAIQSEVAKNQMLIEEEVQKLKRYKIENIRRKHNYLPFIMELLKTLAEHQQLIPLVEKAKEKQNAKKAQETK
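Test system – human UCH37 enzyme supplied as purified proteasome complex · Incubation – 30 min preincubation with enzyme, 25 min cleavage at room temperature · Detection – AMC fluorescence from Ub-AMC cleavage, excitation 355 nm, emission 460 nm · Benchmarks – no-proteasome wells (full inhibition) and compound-free wells (no inhibition)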
Ecoli growth: inhibitors of Escherichia coli growth; OD600, 23 h; hits give low values; OD600 absorbance (test concentration not listed); 330,000 compounds, 0.21% hits; AID 1053175;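 active = OD600 absorbance below the run mean of sample wells minus 3.6 SD, in any replicate, cut at about 0.56 in these data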;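 note: stock transfer was 300 nL into about 60 µL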
Bfl-1 A1 inh: inhibitors of the anti-apoptotic protein A1, read as caspase activation | MEF A1-2A-BIM cells, Caspase-Glo 3/7 luminescence, 3 h; percent of clofoctol response, vehicle zero | caspase activation, % (concentration not given with the values) | 330,000 compounds, 0.066% hits | AID 2462;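 active = over half of replicate activation scores above 10%, or exactly half above 10 with the replicate mean above 10; inconclusive = replicate mean below 10 yet half the replicates above 10; inactive = over half of replicates below 10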;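 note: wells of about 30 µL received 50 nL stock; many hits fall short of the cut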
T cruzi repl: blocks replication of Trypanosoma cruzi | T. cruzi beta-gal in NIH3T3, luminescence, 90 h | inhibition, % (concentration not given with the values) | 300,000 compounds, 1.4% hits | AID 1885;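 active = mean inhibition across valid replicates above about 55%, limit read from the data; inconclusive = mean below that limit but half or more replicates reach it; inactive = mean below it, under half of replicates reach it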;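 note: signal also drops with host cell toxicity which is not excluded here; 0% = plate median of DMSO wells and 100% = zero luminescence signal; higher percent means less beta-gal luminescence so fewer parasites; stock transfer was 50 nL into about 50 µL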
rRNA inh HTS OD600: recorded beside rRNA inh HTS, whose call it bears; OD600 change, %; measured here: OD600 growth;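 optical density of the mix in the first replicate; 0 = DMSO median and -100 = no signal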
rRNA inh HTS RFP: also measured in rRNA inh HTS; calls as there; RFP signal change, %; measured here: RFP humanized mutant strains;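 first replicate; 0 = DMSO median and -100 = no signal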
Numbers without * were called inactive; i = inactive; ? = inconclusive; . = no result given. Some of the compounds tested; count on the stated rates, not on these rows.

SMILES	FGF22 binding	AF4-AF9 inh	rRNA inh HTS	rRNA inh HTS OD600	rRNA inh HTS RFP	Beta cell apopt	UCH37 inh	Ecoli growth	Bfl-1 A1 inh	T cruzi repl
O=C(Nc1ccc(-c2nc3ccccc3o2)cc1)c1ccc(N2C(=O)C3C4C=CC(C4)C3C2=O)cc1 (centres undefined)	.	.	-1	10	1.5	3	i	0.75	0.1	15
CCC(C)(C)NC(=O)CN(C(=O)CCC(=O)Nc1nccs1)c1cccc(C)c1	i	-9.5	0	3	1.1	-8	0.9	0.69	1.3	3
Cc1cc(-n2c(C)cc(C(=O)COc3ccc4ccc(=O)oc4c3)c2C)no1	.	.	.	.	.	-1	-124	0.66	-0.7	14
CC(C)CC(=O)N1CCN(C(=O)c2ccco2)CC1	.	0.0	11	18	2.4	0	2.4	0.68	0.3	-10
COc1ccc(/C=N/OC(=O)Nc2ccccc2)cc1[N+](=O)[O-]	i	1.3	-8	-5	-1.1	-10	.	.	-3.3	1
COc1cccc(/C=N/NC(=O)C(=O)NCc2cccnc2)c1OC	i	-1.4	.	.	.	0	.	.	0.5	-10
OCC1OC(n2nc3ccccc3n2)C(O)C(O)C1O (centres undefined)	.	.	.	.	.	.	0.9	0.71	0.1	-4
CCc1cc2ccc(C)cc2nc1SCC(=O)c1ccc(NC(C)=O)cc1	i	-5.6	-8	-3	1.7	7	4.5	0.71	0.5	37
N#Cc1cn(CCOC(=O)c2cccc(C(F)(F)F)c2)c(=O)[nH]c1=O	i	-1.0	4	-3	-1.0	4	2.5	0.66	0.2	22
COc1ccc(C(=O)C2CCCN(Cc3cccn3-c3cccnc3)C2)cc1OC (centres undefined)	.	9.5	4	-2	3.8	4	3.7	0.66	-0.5	10
Cc1cccc2c1nc(-c1ccccc1)n1cnnc21	.	.	.	.	.	-2	3.6	0.67	-0.2	9
CCCC(=O)N1CCN(c2ccc(NC(=O)c3ccc(OCC)c([N+](=O)[O-])c3)cc2)CC1	.	.	.	.	.	4	-2.0	0.77	-0.4	8
CCOC(=O)c1c(NC(=O)CSC(=S)N2CCOCC2)sc(C)c1C	i	-23	4	0	1.7	4	1.7	0.74	0.2	5
Cc1nc2ccc(C(=O)Nc3ccc4nc[nH]c4c3)cc2[nH]1	i	3.8	6	9	-0.8	-1	0.0	0.64	-0.4	5
COc1ccc(N2C(=O)CSC2c2ccccc2)cc1 (centres undefined)	i	0.0	1	9	-1.6	3	2.7	0.67	0.3	-3
Cc1ccc(C(=O)Nn2cnnc2)cc1S(=O)(=O)N1CCOCC1	i	3.1	14	7	4.0	-9	4.3	0.72	0.0	-8
CCCC1(C(=O)OCC)NC(c2ccc(OC)cc2OC)C2C(=O)N(c3ccccc3)C(=O)C21 (centres undefined)	.	.	.	.	.	-6	-0.7	0.76	0.1	-7
O=C(Nc1ccc2nc3n(c(=O)c2c1)CCCC3)c1cccc([N+](=O)[O-])c1	.	.	.	.	.	2	2.2	0.68	-4.1	-2
CCN(C(=O)CSc1nnc(Nc2ccccc2C)s1)C1CCS(=O)(=O)C1 (centres undefined)	i	5.1	.	.	.	0	1.0	0.73	0.0	-1
CCCN1C(=O)/C(=C\C=C2/C=CN(CC)c3ccccc32)SC1=S	.	.	.	.	.	12	9.0	0.75	?	39
O=C(N/C(=C\c1ccc([N+](=O)[O-])cc1)C(=O)N1CCOCC1)c1ccccc1	i	-2.6	11	8	-6.5	2	19	0.66	0.1	-7
O=C(Nc1cccc(Cl)c1)Nc1ccccc1NS(=O)(=O)c1cccs1	.	1.0	-59	-81	-25	2	4.7	0.67	-0.9	-11
O=c1c(-c2nc3ccccc3s2)cccn1Cc1ccccc1	.	.	.	.	.	-8	i	0.69	0.2	17
CNC(=O)/C(C#N)=C/c1cc(C)n(-c2ccc(N3CCOCC3)cc2)c1C	i	.	-14	-1	11	.	-6.0	0.75	-0.2	8
COc1ccc(-n2nnc3c(SCC(=O)c4ccccc4)ncnc32)cc1	.	.	.	.	.	-3	-6.2	0.74	2.0	-1
O=C(/C=C/c1ccc(F)cc1)NC(=S)N1CCN(Cc2ccccc2)CC1	i	1.6	-34*	-21*	-4.8*	-5	2.8	0.65	-0.3	-3
C/C(=N/NC(=O)c1cccs1)c1ccco1	i	-18	3	8	3.4	-2	.	.	-9.8	-13
N#Cc1nc(COc2ccccc2)oc1N1CCCC1	.	.	.	.	.	-1	5.9	0.66	1.8	7
COc1cc(OC)cc(C(=O)N[C@H](C(=O)OCC(=O)N2CCc3ccccc32)C(C)C)c1	i	-1.0	-9	-3	1.2	-1	1.2	0.7	?	5
COCCn1cc(C(=O)c2ccccc2OCC(=O)Nc2cc(C)on2)cc(C#N)c1=O	.	.	.	.	.	-3	-4.8	0.74	0.8	1
CCOC(=O)C(Cc1ccccc1)NC(=O)CCC(=O)c1ccc(OC)cc1 (centres undefined)	i	-0.1	3	-4	1.3	-2	2.6	0.64	0.3	-7
CCC(=O)NC1(C(F)(F)F)C(=O)Nc2c1c(=O)n(C)c(=O)n2C (centres undefined)	.	.	.	.	.	-1	3.6	0.73	0.4	-31
COc1ccc(C2=CN(Cc3ccccc3)CCC2=O)cc1	i	-3.0	0	5	-5.2	-1	1.6	0.69	1.8	.
Cc1ccc2[nH]c(=O)c(-c3noc(CC(C)C)n3)cc2c1	i	-9.8	-5	13	-2.4	0	-118	0.68	0.0	11
CC(C)NC(=S)n1cc(C(=O)c2cc(Cl)cc(Cl)c2O)cn1	i	-5.0	-8	-17	-4.7	3	1.9	0.64	1.9	-20
CNCc1ccc(OCc2ccccc2)c(OC)c1	.	.	.	.	.	-4	0.2	0.64	0.2	25
Cc1ccc(NC(=O)CCC(=O)NNC(=O)COc2cccc3ccccc23)c(C)c1	.	-11	-2	5	6.9	-10	2.7	0.73	0.0	-4
Cc1nnc(NNS(=O)(=O)c2ccc(Cl)cc2)[nH]c1=O	i	-0.6	3	5	-1.7	-7	7.5	0.67	0.0	-9
COc1ccc(OC)c(S(=O)(=O)Nc2c(C)cccc2C)c1	i	0.2	-10	-12	-2.8	5	3.2	0.68	-0.1	-4
C=CCNc1nc(C(=O)OCC(=O)Nc2cccc(SC)c2)cs1	.	-0.7	5	7	2.0	.	4.0	0.68	.	.
CCCN=C1N(C)C[C@@H]2[C@@H]3C(=O)N(Cc4ccccc4)C(=O)[C@@H]3[C@](CC)(C(=O)OC)N12	.	-1.0	13	4	1.1	.	3.8	0.71	.	.
CCCCNC(=O)CCC(=O)NNc1nc2ccccc2c2nc(-c3ccccc3)nn12	i	-4.1	2	13	-0.8	5	2.1	0.69	1.0	-7
COc1ccc(C(C)(C)C)cc1NC(=O)CSc1ncn[nH]1	i	-1.6	0	3	-1.7	.	0.8	0.64	.	.
Cn1c(CC(=O)Nc2ccccc2Cl)nnc1SCC(=O)Nc1nncs1	i	-1.2	6	12	-2.3	-1	2.4	0.61	-0.5	-1
CCC(=O)Nc1nnc(-c2ccccn2)o1	i	-3.2	17	10	-5.7	-4	-11	0.7	0.4	2
CCOC(=O)c1sc(NC(=S)NC(=O)c2ccc(OC)cc2)nc1C	i	1.9	-5	4	-5.3	6	1.7	0.62	0.0	3

Taken from the listing, 17 compounds:
SMILES	FGF22 binding	AF4-AF9 inh	rRNA inh HTS	rRNA inh HTS OD600	rRNA inh HTS RFP	Beta cell apopt	UCH37 inh	Ecoli growth	Bfl-1 A1 inh	T cruzi repl
C/C(=N/NC(=O)c1cccs1)c1ccco1	i	-18	3	8	3.4	-2	.	.	-9.8	-13
N#Cc1nc(COc2ccccc2)oc1N1CCCC1	.	.	.	.	.	-1	5.9	0.66	1.8	7
COc1cc(OC)cc(C(=O)N[C@H](C(=O)OCC(=O)N2CCc3ccccc32)C(C)C)c1	i	-1.0	-9	-3	1.2	-1	1.2	0.7	?	5
COCCn1cc(C(=O)c2ccccc2OCC(=O)Nc2cc(C)on2)cc(C#N)c1=O	.	.	.	.	.	-3	-4.8	0.74	0.8	1
CCOC(=O)C(Cc1ccccc1)NC(=O)CCC(=O)c1ccc(OC)cc1 (centres undefined)	i	-0.1	3	-4	1.3	-2	2.6	0.64	0.3	-7
CCC(=O)NC1(C(F)(F)F)C(=O)Nc2c1c(=O)n(C)c(=O)n2C (centres undefined)	.	.	.	.	.	-1	3.6	0.73	0.4	-31
COc1ccc(C2=CN(Cc3ccccc3)CCC2=O)cc1	i	-3.0	0	5	-5.2	-1	1.6	0.69	1.8	.
Cc1ccc2[nH]c(=O)c(-c3noc(CC(C)C)n3)cc2c1	i	-9.8	-5	13	-2.4	0	-118	0.68	0.0	11
CC(C)NC(=S)n1cc(C(=O)c2cc(Cl)cc(Cl)c2O)cn1	i	-5.0	-8	-17	-4.7	3	1.9	0.64	1.9	-20
CNCc1ccc(OCc2ccccc2)c(OC)c1	.	.	.	.	.	-4	0.2	0.64	0.2	25
Cc1ccc(NC(=O)CCC(=O)NNC(=O)COc2cccc3ccccc23)c(C)c1	.	-11	-2	5	6.9	-10	2.7	0.73	0.0	-4
Cc1nnc(NNS(=O)(=O)c2ccc(Cl)cc2)[nH]c1=O	i	-0.6	3	5	-1.7	-7	7.5	0.67	0.0	-9
COc1ccc(OC)c(S(=O)(=O)Nc2c(C)cccc2C)c1	i	0.2	-10	-12	-2.8	5	3.2	0.68	-0.1	-4
C=CCNc1nc(C(=O)OCC(=O)Nc2cccc(SC)c2)cs1	.	-0.7	5	7	2.0	.	4.0	0.68	.	.
CCCN=C1N(C)C[C@@H]2[C@@H]3C(=O)N(Cc4ccccc4)C(=O)[C@@H]3[C@](CC)(C(=O)OC)N12	.	-1.0	13	4	1.1	.	3.8	0.71	.	.
CCCCNC(=O)CCC(=O)NNc1nc2ccccc2c2nc(-c3ccccc3)nn12	i	-4.1	2	13	-0.8	5	2.1	0.69	1.0	-7
COc1ccc(C(C)(C)C)cc1NC(=O)CSc1ncn[nH]1	i	-1.6	0	3	-1.7	.	0.8	0.64	.	.
